Source: PubChem BioAssay
eIF4H FP inh = inhibitors of RNA binding by human eIF4H. AID 2012. hit rate 0.94% among 290,000. eIF4H fluorescence polarization binding assay. inhibition, % at 35 µM. Q15056;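 active = 50% or more with normal probe brightness, or confirmed in later tests; inconclusive = above 50% with abnormal brightness, or retests that disagree; inactive = below 50% or failed in later tests; about a fifth of its hits are not listed in these tables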;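 also: calls also rest on retests at 20 µM and on dose response follow-up; 0% = protein and probe with vehicle and 100% = probe without protein; strong numbers were not always called active; many hits fall short of the cut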
PABP polyA inh = blocks human PABP binding to poly(A) RNA. AID 2014. fluorescence polarization. hit rate 1% among 290,000. inhibition, % at 35 µM;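 active = 50% or more with normal probe brightness, or confirmed in later tests; inconclusive = above 50% with abnormal brightness, or retests that disagree; inactive = below 50% or failed in later tests; about a fifth of its hits are not listed in these tables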;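 also: calls also rest on retests at 20 µM and on dose response follow-up; controls were probe without protein and protein plus probe with vehicle; some compounds called inactive have numbers as strong as hits; many hits fall short of the cut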
Target sequence (P11940 whole entry, looked up): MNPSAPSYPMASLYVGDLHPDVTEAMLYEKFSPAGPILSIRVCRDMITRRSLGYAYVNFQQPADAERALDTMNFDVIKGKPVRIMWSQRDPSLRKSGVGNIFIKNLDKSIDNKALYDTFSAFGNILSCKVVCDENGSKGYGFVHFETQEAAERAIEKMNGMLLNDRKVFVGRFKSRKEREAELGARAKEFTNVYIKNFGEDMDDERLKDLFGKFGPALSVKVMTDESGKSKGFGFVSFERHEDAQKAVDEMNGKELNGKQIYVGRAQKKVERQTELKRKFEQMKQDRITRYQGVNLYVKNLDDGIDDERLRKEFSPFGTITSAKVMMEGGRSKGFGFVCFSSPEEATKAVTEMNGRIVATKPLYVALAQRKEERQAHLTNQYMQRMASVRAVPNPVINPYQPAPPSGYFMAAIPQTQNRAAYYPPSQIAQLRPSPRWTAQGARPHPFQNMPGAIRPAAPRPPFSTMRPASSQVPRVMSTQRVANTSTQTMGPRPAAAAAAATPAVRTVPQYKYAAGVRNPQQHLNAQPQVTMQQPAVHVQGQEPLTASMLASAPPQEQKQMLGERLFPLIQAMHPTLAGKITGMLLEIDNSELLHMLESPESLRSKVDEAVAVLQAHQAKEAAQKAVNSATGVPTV
CSC inhib = blocks cancer stem cells; inhibition, % at 7.5 µM; cancer stem cell-like cells viability, luminescence; AID 2717; hit rate 1.1% among 300,000;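 active = mean at 75% or more and at least half the replicates too; inconclusive = mean and replicates disagree; tested in HMLE shEcad cells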;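 also: 0% = median of negative and 100% = median of positive control wells; the first replicate is given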
Env fusion inh = blocks HIV Env-driven cell-cell fusion; HeLa-JRFL Env/CEM21 cell fusion, luciferase; inhibition, % at 12.3 µM; hit rate 1.1% among 360,000;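 active = mean replicate inhibition score of at least 50 and every replicate individually at or above 50; inconclusive = only one of the two criteria met; inactive = mean below 50 and not all replicates reaching 50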;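 also: 0% = plate neutral controls and 100% = maraviroc near 300 nM; one replicate is shown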
MT1-MMP act inh = blocks activation of human MT1-MMP | hit rate 0.061% among 360,000 | P50281 | AID 651647 | GFP/RFP ratio change, % at 20 µM | HT1080 RFP-PRO-GFP cells, GFP/RFP ratio fluorescence, overnight; percent of plate control window, DMSO zero;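 active = GFP/RFP ratio change of at least 30% with cell ATP level not reduced by more than half and red fluorescence within 50% of control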; also: strong numbers were not always called active
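system = RFP-PRO-GFP reporter HT1080 cells | dosing = 20 µM single dose, 1% DMSO | timing = overnight cell settling, then overnight compound exposure, 37 °C, 5% CO2 | read-out basis = GFP/RFP fluorescence ratio | controls = DMSO and RFP-L50D-GFP cell wells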
Rce1 inhib = blocks yeast Ras-converting enzyme | hit rate 0.27% among 290,000 | yeast membranes, quenched prenylated peptide cleavage fluorescence | AID 2563 | Q03530 | calls only;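 active = fall in fluorescence gain of 50% or more versus controls, with final raw signal at or below 3038400; inconclusive = same 50% fall but final raw signal above 3038400; inactive = fall in fluorescence gain under 50%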;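 also: plate controls were neutral control wells for no effect and wells lacking membranes for full effect; tested at 10 µM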
Yeast UUG start = yeast start codon fidelity modulation; S. cerevisiae UUG-firefly luciferase reporter, luminescence/redox ratio; activity score, % at 18.7 µM; hit rate 0.13% among 350,000; AID 602363;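 active = replicate mean at a twofold rise or more, about +100% in these data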;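 also: firefly luciferase made from a UUG start codon reports start codon fidelity; reporter light over untreated wells divided by growth signal over untreated wells; some hits fall short of that in this replicate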
eIF4H FP inh retest = further read-out of eIF4H FP inh, marked with its call; inhibition, %; compound at 20 µM; confirmation average;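 mean of two retest wells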
PABP polyA inh retest = also measured in PABP polyA inh; calls as there; inhibition, %; compound at 20 µM; confirmation repeats;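 mean of two retest wells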
MT1-MMP act inh RFP = further read-out of MT1-MMP act inh, marked with its call; RFP signal change, %; measured here: RFP expression control read;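 0 = vehicle wells; hits needed this value within 50% of zero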
Numbers without * were called inactive; i = inactive; ? = inconclusive; . = not tested or not shown.

Start of the data: the first three entries, to show the layout:
SMILES	eIF4H FP inh	PABP polyA inh	CSC inhib	Env fusion inh	MT1-MMP act inh	MT1-MMP act inh RFP	Rce1 inhib	Yeast UUG start	others
COc1cccc(C(=O)NC(=O)Nc2nc(C)cc(C(F)(F)F)n2)c1	-1	12	.	8	-4	1	i	11
CCOc1ccc(CCNC(=O)C2CC(=O)N(c3ccc4c(c3)OCCO4)C2)cc1OCC (centres undefined)	.	.	-6	-40	1	2	i	.
O=C(Nc1cccc(-n2cnnn2)c1)c1cccs1	-4	0	1	-12	2	2	i	-13

The listing (from the top)
SMILES	eIF4H FP inh	PABP polyA inh	CSC inhib	Env fusion inh	MT1-MMP act inh	MT1-MMP act inh RFP	Rce1 inhib	Yeast UUG start	others
COc1cccc(C(=O)NC(=O)Nc2nc(C)cc(C(F)(F)F)n2)c1	-1	12	.	8	-4	1	i	11
CCOc1ccc(CCNC(=O)C2CC(=O)N(c3ccc4c(c3)OCCO4)C2)cc1OCC (centres undefined)	.	.	-6	-40	1	2	i	.
O=C(Nc1cccc(-n2cnnn2)c1)c1cccs1	-4	0	1	-12	2	2	i	-13
Cc1c(-c2nc(-c3cccnc3)no2)cccc1[N+](=O)[O-]	1	1	3	-31	2	5	i	.
O=C(COC(=O)[C@@H]1CCCN1S(=O)(=O)c1ccccc1F)NCc1ccc2c(c1)OCO2	.	.	.	13	1	5	.	-22
CCOc1ccc(N2CC(C(=O)NCCc3ccc(OC)c(OC)c3)CC2=O)cc1 (centres undefined)	-10	4	.	.	-5	-4	i	7
O=C(CCc1ccccc1)Nc1nc2n(n1)C(c1ccc(Cl)cc1)CC(=O)N2 (centres undefined)	-5	2	1	.	-3	-3	i	-11
CN(c1ccccc1)S(=O)(=O)c1cc(Cl)ccc1Cl	-4	-8	-9	17	1	-1	i	-32
O=C(N/C(=C/C=C\c1ccccc1)C(=O)N1CCOCC1)c1ccc(Br)cc1	-6	-9	-11	15	3	-3	i	-3
COc1cc2nc(N(CCN(C)C)C(=O)c3ccc(S(=O)(=O)N(C)CC4CCCO4)cc3)sc2cc1OC (centres undefined)	10	0	-7	-3	1	5	i	7
O=C(c1nn2c(C(F)(F)F)cc(-c3ccccc3)nc2c1Cl)N1CCN2CCCC2C1 (centres undefined)	-5	3	.	-1	1	-2	i	-7
CSc1n[nH]c(=O)n1C1CCCCC1	-4	7	-4	-6	0	4	i	-2
CCOCc1cc(C2NC(=O)NC(C)=C2C(=O)OCC)ccc1OC (centres undefined)	-8	-16	-12	.	5	0	i	-8
Cc1cc(NC(=O)CSc2ccc(-c3cccc([N+](=O)[O-])c3)nn2)no1	-4	?	-21	8	1	4	i	-14
CCCCC1CN2CCc3c([nH]c4ccccc34)C2(C)C1 (centres undefined)	-4	-4	-4	-72	-1	4	i	2
O=S(=O)(NCc1ccc(F)cc1)c1ccccc1Br	.	.	0	12	4	0	.	-7
COc1ccc(N2CCN(C3CCCN(C(=O)c4ccoc4)C3)CC2)cc1 (centres undefined)	-18	-10	1	13	-2	2	i	-10
COc1ccc(CNC(=O)COc2ccc(Br)c(C)c2)cc1	1	4	7	-1	-2	-1	i	-18
CCOC(=O)N/N=C\c1cccc(OC)c1OC/C=C/c1ccccc1	-1	18	5	-6	1	-1	i	-19
N#Cc1ccc(CSc2nnc(NC(=O)C3CC(=O)N(c4ccc5c(c4)OCCO5)C3)s2)cc1 (centres undefined)	85	-5	12	.	8	7	i	.	eIF4H FP inh retest=-5;PABP polyA inh retest=4
CCCCCN1CC(=O)N2[C@@H](Cc3c([nH]c4ccccc34)C2(C)C)C1=O	-5	7	-17	-4	5	2	i	-14
Cc1ccn2c(=O)c(C(=O)NCCCN3CCCCC3C)c(O)nc2c1 (centres undefined)	-16	9	-13	.	-4	-1	i	-21
COc1cccc(CNC(=S)NC2CC2)c1	-9	-1	-2	-3	2	2	i	.
CN(C)S(=O)(=O)Oc1cccc(C(=O)Nc2ccccc2Cl)c1	-6	1	3	-129	4	-2	.	-15
COc1ccc(S[C@@H](CCN2CC[C@H](NC(=O)OCc3ccccc3)CCC2=O)c2ccccc2)cc1	.	.	82*	37	-1	-17	.	-20
CCc1cccc(OCCCCN(CC)CC)c1	-3	19	-12	-19	-2	-2	i	-4
COc1ccc(S(=O)(=O)Nc2ccc3c(c2)OCO3)cc1	6	5	0	.	4	3	i	-11
COc1ccc(-c2nn(C)c(=O)c3ccccc23)cc1NC(=O)Cn1nc(-c2ccccc2)c2ccccc2c1=O	-6	-10	15	-57	-1	-1	i	3
Cn1ncc([N+](=O)[O-])c1C(=O)Nc1ccc(-c2nc3ccccc3[nH]2)cc1	-11	11	3	.	15	-1	.	-7
COc1cccc(C(=O)N(CN2CCCC2=O)c2cc(C)on2)c1	4	8	-3	-7	2	4	i	16
O=[N+]([O-])c1nn(-c2ccc(Cl)cc2)n(O)c1=NCc1ccccc1	-2	-1	7	-40	2	-1	i	-12
O=C(COc1ccc(S(=O)(=O)NC2CCCCC2)cc1)NC1CC1	-4	2	2	10	0	-1	.	-12
CCN(CC(=O)Nc1ccc(NC(C)=O)cc1)C(=O)CCCOc1ccc(C(C)(C)C)cc1	.	.	29	1	-6	-14	i	.
Nc1ccc(CCc2ccc(N)cc2)cc1	.	.	10	2	5	4	i	-17
O=c1[nH]c(/C(=N\O)c2ccccc2)no1	-8	-4	-16	.	-3	0	i	-6
O=C(Nc1cccc(Oc2ccccc2)c1)C1Cc2c(-c3ccco3)ccnc2O1 (centres undefined)	.	.	.	-14	-2	-7	.	-18
COc1ccc2[nH]cc(C(=O)NCCc3ccccc3)c(=O)c2c1	11	-8	-2	-6	4	-5	i	-9
CCc1c(O)nc(SC2CC(=O)N(c3ccc(F)c(Cl)c3)C2=O)[nH]c1=O (centres undefined)	-4	-1	-8	-22	-1	2	i	-4
COc1ccccc1N1CCN(C2CCCN(C(=O)c3oc(C)cc3C)C2)CC1 (centres undefined)	0	-1	3	23	4	0	.	-10
O=C(NCCNc1ccc([N+](=O)[O-])cc1)c1cc(F)c(F)cc1Cl	.	.	-1	8	0	-7	i	-7
COc1cc(C(=O)NCC(c2cccnc2)N2CCN(c3ccccc3)CC2)cc(OC)c1OC (centres undefined)	4	2	4	7	11	6	i	-7
CCc1ccc(NC(=O)C2=CC(c3ccc(OC)c(OC)c3)=NS(=O)(=O)N2C)cc1	2	-2	9	56*	-5	-25	i	-2
CC1=N/C(=C\c2ccc(OC(C)C)cc2)C(=O)N1c1ccc(C(=O)O)cc1	-2	-5	-12	-12	-2	3	.	.
COc1cc(C(=O)N2CCN(c3ccccc3)CC2)c2ccccc2n1	.	.	.	44	13	-1	.	-10
Cc1ccc(C(=O)Cn2cc([N+](=O)[O-])nc2C)cc1	4	-1	4	3	-2	1	i	.
CCNc1nc(NCC)nc(SCC(C)=O)n1	4	8	-17	1	0	3	i	-12
COc1ccc(CNCc2cc(Cl)ccc2O)cc1	.	.	-3	-6	-4	-2	.	-8
O=C(C1=C[C@@H](c2coc3ccccc3c2=O)C[C@@H](OCc2ccc(CO)cc2)O1)N1CCN(Cc2ccc3c(c2)OCO3)CC1	2	0	-7	0	1	-4	i	4
Cc1cc(S(=O)(=O)Nc2ccc3ccccc3c2)c(C)s1	-5	-5	60	.	-8	-17	i	11
O=C(Nc1ccc(N2CCN(C(=O)c3ccccc3)CC2)cc1)c1cccs1	1	7	-2	27	-1	1	i	1
CC(C)CCNC(=O)C1CCCN(S(=O)(=O)c2ccc(F)cc2)C1 (centres undefined)	-10	6	.	.	-9	-6	i	8
O=C(COC(=O)c1cc([N+](=O)[O-])ccc1N1CCOCC1)Nc1cccc(F)c1	1	18	4	18	.	.	.	16
Cc1ccc(C(=O)Nc2ccc3c(c2)OCCO3)c(Cl)c1	6	3	-5	-5	3	0	i	-80
Cc1oncc1C(=O)N1CCCC(CO)(Cc2ccc(F)cc2F)C1 (centres undefined)	-5	-8	-1	-16	0	1	i	8
CC(=O)Nc1ccc(Oc2cnc3ccccc3n2)cc1	-1	-4	1	-20	-5	-9	i	-4
COC(=O)c1cc(CNC(=O)C2CC(=O)N(c3ccc4c(c3)OCCO4)C2)ccc1OC (centres undefined)	.	.	-12	-5	-1	-1	.	0
N#CC1=C(N)Oc2n[nH]c(-c3cccnc3)c2C1c1cc(F)ccc1F (centres undefined)	-5	0	-9	7	2	0	i	.
CCOc1ccc(CCNC(=O)CCn2nc(C)c3c(C)n(-c4ccccc4)nc3c2=O)cc1	-8	0	-1	4	2	-5	i	6
CCOC(=O)C1CCCN(C(=O)CSc2ccc(Br)cc2)C1 (centres undefined)	-6	8	15	.	1	-1	i	.
CC(=O)Nc1ccc(SC(C)C(=O)NC2CCCC2)cc1 (centres undefined)	-8	2	-9	-1	6	6	i	0
Going on with the list:
SMILES	eIF4H FP inh	PABP polyA inh	CSC inhib	Env fusion inh	MT1-MMP act inh	MT1-MMP act inh RFP	Rce1 inhib	Yeast UUG start	others
CCOc1ccc(-c2cccc(NC(=O)COc3ccc(Cl)cc3)c2)nn1	-5	-3	-7	.	5	1	i	-23
Cc1cccc(C)c1OCC(=O)Nn1c(C)nc2ccccc2c1=O	-6	-9	-6	.	0	6	i	.
COc1ccc2[nH]c3c(c2c1)CCN1C(=O)C(CC(=O)NCCN2CCOCC2)C[C@H](C(=O)N2CCOCC2)[C@@]31CCC1CCCC1 (some centres undefined)	.	.	.	16	-3	-1	.	-5
Cc1cccc(NC(=O)NCC(c2ccco2)N2CCCCC2)c1 (centres undefined)	1	4	-15	-6	0	3	i	-10
CCOC(=O)c1cnn(-c2cc(Oc3cccc(C)c3)ncn2)c1N	2	-4	-4	.	4	6	i	-7
Cc1nn(Cc2ccccc2)c(C)c1NC(=O)c1cc(-c2ccc3c(c2)OCO3)on1	-3	-5	51	37	2	-4	i	.
COC(=O)c1c(NC(=O)COC(=O)CCc2ccc(S(=O)(=O)N3CCOCC3)cc2)sc2c1CCC2	-1	-2	4	-58	5	-2	i	.
C=C(C)Cn1c(SCC)nc2ccccc2c1=O	-3	-14	40	.	6	10	i	-2
COc1ccccc1CNC(=O)C1CC2Cn3c(nc4cc(C)c(C)cc43)C2N1C (centres undefined)	.	.	9	-2	2	-1	i	-11
CCCN1C(=O)/C(=C/c2nc3ccccc3c(=O)[nH]2)c2cc(C)ccc21	-9	-3	9	7	-11	-4	i	-14
CCOc1ccc(NS(=O)(=O)c2ccc(C(=O)N(C)CCc3ccc(OC)c(OC)c3)cc2)cc1	-1	-7	-5	89*	-1	-11	i	4
Cc1cc(C)n2nc(SC3CCCCN(C(=O)c4ccc(F)cc4)C3=O)nc2n1 (centres undefined)	-11	-9	-5	-5	7	2	i	-9
COc1cc(OC)c(S(=O)(=O)N2CCOCC2)cc1S(=O)(=O)N1CCOCC1	3	0	-4	-10	0	4	i	-16
CCN(CC)c1ccc(CNc2nc3ccccc3n2C(C)C)cc1	-4	2	-7	-16	-4	1	i	-16
O=C(NCc1cccs1)C1CC(=O)N(c2ccc(F)cc2)C1 (centres undefined)	5	9	-19	-44	-1	-8	i	.
O=C(Nc1ccc(O)cc1)c1ccc(NC(=O)C2CCCO2)cc1 (centres undefined)	3	-4	5	-19	8	-1	i	-22
CC(C)NC(=S)N/N=C/c1ccccc1[N+](=O)[O-]	11	3	-21	9	-9	-3	i	.
